# Source: PubChem BioAssay
# StopGo reporter = lowers the luciferase signal of an FMDV 2A StopGo reporter. human cells with a luciferase reporter of 2A StopGo recoding; control for the full effect not named in the record. Potency, µM (highest dose often 57.9 µM), inactives show at the highest dose signal change, negative = less light. 410,000 tested, 1.2% active; active = well fitted falling curve with a large enough effect; inconclusive = small, poorly fitted or top-dose-only effect; inactive = no such curve, though single readings can be large or run the other way; tested in HEK293T cells; note: % is set by controls: 0 for no effect and ±100 for the full control effect; nearly all actives have a fitted effect of over 45% in size; luciferase light after 4 h
# SARS PLpro yeast = inhibitors of SARS-CoV papain-like protease in yeast. AID 485353. 330,000 tested, 0.19% active. S. cerevisiae expressing SARS-CoV PLpro, growth rescue; control for the full effect not named in the record. Potency, µM (titrated, usually from 32.9 µM), inactives show at the top dose activity, positive = growth rescue; note: 0% is about no effect; nearly all actives have a fitted effect of over 55% in size; growth read by luminescence after 48 h
# NS1 function inh = inhibitors of influenza NS1 protein function | AID 2326 | Potency, µM (highest dose often 46.1 µM), for inactives: at the top dose activity, positive = more growth | S. cerevisiae slowed by influenza A NS1, growth recovery by OD600 | 270,000 tested, 0.4% active; note: actives are rising curves; nearly all actives have a fitted effect of over 50% in size
#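 OD600 was taken as the measure of yeast growth restored by compound in an NS1-expressing S. cerevisiae strain. Cells had been washed out of glucose medium and diluted 1:100 into galactose -URA medium, pH 6.0.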
# RE007 growth inh = less growth of the S. pombe RE007 Vpr strain; S. pombe RE007 Vpr strain, BacTiter-Glo ATP luminescence, 24 h; control for the full effect not named in the record; Potency, µM (highest dose often 92.2 µM), for inactives: at the top dose activity change, negative = less growth; 360,000 tested, 0.21% active; AID 651644; active = well fitted falling curve with a large enough effect; inconclusive = small, poorly fitted or top-dose-only effect; inactive = no such curve, though single readings can be large or run the other way;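 note: % is set by controls: 0 for no effect and ±100 for the full control effect; nearly all actives have a fitted effect of over 50% in size; the assay follows cell death caused by Vpr and the record does not say whether a fall means rescue or toxicity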
#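 Fission yeast RE007 carrying one integrated HIV-1 vpr copy, seeded at OD 0.01 in PMG+AL medium with 23 nL pinned compound. Grown 24 h at 30 degrees; viability read by BacTiter-Glo luminescence after 5 min.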
# Cruzain noTriton = inhibitors of Trypanosoma cruzi cruzain without detergent | purified cruzain, Z-FR-AMC fluorescence, no detergent | P25779 | 200,000 tested, 2.3% active | Potency, µM, inactives show max response, negative = inhibition, most hits filed as inhibitors; active = well fitted curve in the direction sought with a large enough effect; inconclusive = small, poorly fitted or top-dose-only effect, or another doubt; inactive = no such curve, though single readings can be large; an effect the other way counts as inactive or inconclusive;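 note: plate controls were enzyme without inhibitor for no effect and buffer without enzyme for full effect; nearly all actives have a fitted effect of over 40% in size; top concentration of the series not given in the record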
# Target sequence (P25779 123-467 limits assumed): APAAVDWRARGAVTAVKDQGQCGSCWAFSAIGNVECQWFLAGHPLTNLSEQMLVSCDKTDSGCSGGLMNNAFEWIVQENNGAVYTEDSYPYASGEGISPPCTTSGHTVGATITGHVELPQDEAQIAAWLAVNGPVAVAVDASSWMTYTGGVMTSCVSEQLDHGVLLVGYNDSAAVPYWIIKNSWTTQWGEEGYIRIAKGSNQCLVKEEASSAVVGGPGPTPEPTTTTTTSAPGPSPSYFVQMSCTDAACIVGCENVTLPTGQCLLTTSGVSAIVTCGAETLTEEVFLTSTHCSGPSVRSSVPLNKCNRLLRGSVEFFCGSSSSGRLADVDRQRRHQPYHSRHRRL
#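 Purified cruzain at 1.5 nM, pre-incubated 15 min with compound at room temperature in 100 mM sodium acetate pH 5.5, 5 mM DTT, 0.00005% Triton X-100. Reaction started with 2 uM Z-FR-AMC; AMC fluorescence increase over 60 s gives rate.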
# Cruzain Triton = blocks cruzain activity in presence of Triton detergent | P25779 | purified cruzain, Z-FR-AMC fluorescence, 0.01% Triton | Potency, µM, without a hit: max response, negative = inhibition, usual class: inhibitors | 200,000 tested, 0.43% active; active = well fitted curve in the direction sought with a large enough effect; inconclusive = small, poorly fitted or top-dose-only effect, or another doubt; inactive = no such curve, though single readings can be large; an effect the other way counts as inactive or inconclusive;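 note: plate controls were neutral wells for no effect and buffer without enzyme for full effect; nearly all actives have a fitted effect of over 40% in size; top concentration of the series not given in the record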
#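 Purified cruzain (1.5 nM final) was preincubated with compounds for 15 min at room temperature in 100 mM sodium acetate pH 5.5, 5 mM DTT, 0.01% Triton X-100. Reaction started with 2 uM Z-FR-AMC; AMC fluorescence change over 60 s gave activity.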
# LASV entry inh = Lassa virus entry inhibition. Lassa virus pseudotype entry inhibition, cell reporter; control for the full effect not named in the record. Potency, µM (doses to about 37.9 µM), for inactives: at the highest dose activity change, negative = inhibition, actives largely listed as inhibitors. 300,000 tested, 1.2% active; active means well fitted inhibition curve with a large enough effect; inconclusive means small, poorly fitted or top-dose-only effect, or effect the other way; inactive means flat fitted curve, though single readings scatter; tested in HEK293 cells; note: % is set by controls: 0 for no effect and ±100 for the full control effect; nearly all actives have a fitted effect of over 50% in size; luciferase read-out
# MARV entry inh = inhibitors of Marburg virus binding or cell entry. Marburg virus pseudotyped entry inhibition, cell reporter; control for the full effect not named in the record; about a third of the inactives were read at about 46 µM. Potency, µM (doses to about 37.8 µM), for the others: at the highest dose activity change, negative = inhibition, most hits filed as inhibitors. 300,000 tested, 1.8% active. AID 540276; active = well fitted inhibition curve with a large enough effect; inconclusive = small, poorly fitted or top-dose-only effect, or effect the other way; inactive = flat fitted curve, though single readings scatter; tested in HEK293 cells; about a fifth of its hits are not listed in these tables; note: % is set by controls: 0 for no effect and ±100 for the full control effect; luciferase read-out
# * hit, by the source's call; ? = inconclusive; / = not tested or not shown; [ ] = dose if it differs, or a comment. Unless noted, calls come from the whole dose curve; as a rule, active means well fitted rising curve with a large enough effect; inconclusive means small, poorly fitted or top-dose-only effect; inactive means no such curve, though single readings can be large or run the other way. Potency is the fitted concentration of half-maximal effect. Not a hit list (roughly 4.5% active in at least one column).
SMILES,StopGo reporter,SARS PLpro yeast,NS1 function inh,RE007 growth inh,Cruzain noTriton,Cruzain Triton,LASV entry inh,MARV entry inh
COc1cc(C(c2c(NC(=O)c3ccco3)sc(C)c2C)N2CCOCC2)cc(OC)c1OC (stereo not drawn),-10%,-5%,/,12%,/,/,-2%,-7%
N=c1sccn1CC(=O)NCCc1ccc(Cl)cc1Cl,4%,5%,9%,1%,-14%,4.7%,2%,-16%
CC(NC(=O)COc1ccc(-c2nnco2)cc1)c1ccc(Cl)cc1Cl (stereo not drawn),0%,7%,-8%,-3%,-2%,-2.4%,-6%,-8%
CN(C)c1ccc(-c2nnn(CC(=O)N3c4ccccc4CCc4ccccc43)n2)cc1,/,-8%,-12%,-14%,32µM*,-15%,-19%,?
Cc1nc2c(ncn2-c2ccccc2)c(=O)n1NC(=O)CN1CCCCC1,-26%,1%,0%,0%,/,/,/,/
O=C(NN=Cc1c(F)c(F)c(F)c(F)c1F)c1ccc(NS(=O)(=O)c2cccs2)cc1,-19%,2%,/,-19%,/,/,0%,-7%
O=C(CCCc1ccccc1)NCCS(=O)(=O)N1CCN(c2ccc(F)cc2)CC1,-19%,3%,/,-7%,/,/,-9%,25%
COc1ccccc1NC(=O)C(=O)NCCC1CCCCN1S(=O)(=O)c1ccccc1 (stereo not drawn),-23%,-2%,/,12%,/,/,?,?
COc1ccc(-c2csc(NCc3ccco3)n2)cc1C,91%[activator],-4%,?,?,?,-12%,-4%,4%
Cc1cc(C)n2nc(SCc3nnc(SCc4ccccc4)s3)nc2n1,/,0%,-30%,14%,-4%,0.6%,-14%,0%
CCCNC(=O)c1c(N)n(Cc2ccc3c(c2)OCO3)c2nc3ccccc3nc12,16%,6%,-102%,-9%,-2%,-2.7%,-5%,-7%
CCC(C)NC(=O)CSC1=Nc2ccccc2C2=NC(c3ccccc3)C(=O)N12 (stereo not drawn),24%,2%,6%,-7%,-16%,-9.9%,-6%,?
O=C(Nc1ccc2c(c1)C(=O)N(CC1CCCO1)C2=O)c1ccc(Cl)c(Cl)c1 (stereo not drawn),?,15%,-3%,1%,-2%,-7.4%,?,?
OCCC1CN(Cc2cnc(-c3ccccc3)s2)CCN1Cc1ccccc1 (stereo not drawn),?,2%,-3%,-10%,/,/,?,?
CN(C)CCNc1nc2sc3c(c2c(=O)n1-c1ccc(F)cc1)CCCCC3,-13%,0%,-3%,3%,/,/,?,?
N#Cc1nc(-c2ccccc2F)oc1N1CCCCC1,21%,-1%,-2%,-9%,/,/,/,/
CC1CCCN(c2nc3ccccc3nc2C(C#N)C(=O)OC2CCCCC2)C1 (stereo not drawn),/,4%,7%,/,-3%,-5.2%,/,-1%
CCOC(=O)COn1c(=O)c(-c2ccc(Br)cc2)[n+]([O-])c2ccccc21,0%,1%,-1%,1%,/,/,3%,?
CCOC(=O)c1cc(-c2ccccc2)n(CC(=O)Nc2cc(Cl)c(OC)cc2OC)c1C,-11%,/,/,/,-4%,0.4%,4%[46.1 µM],/
Cc1ccc(N(CC(=O)N2CCN(C3CCCCC3)CC2)S(=O)(=O)c2cccnc2)cc1,0%,8%,?,1%,6%,7.2%,-16%,6%
Cc1nc(N)nc(C)c1Cc1ccccc1,-20%,11%,-7%,-15%,-4%,3.3%,-7%,-29%[46.1 µM]
COc1ccc(CNC(=O)c2c3c(nc4ccccc24)C(=O)N(C2CCCCC2)C3)cc1,-17%,/,/,/,17%,-2.0%,-6%[46.1 µM],/
CCN(CC)C(=O)C1CCCN(Cc2ccccc2F)C1 (stereo not drawn),-15%,-4%,-6%,-17%,-4%,5.4%,-7%,?
CC(C)CCNC(=O)C1CCN(S(=O)(=O)c2ccc(-n3cnnn3)cc2)CC1,-18%,-2%,4%,-1%,/,/,?,19%[46.1 µM]
CCS(=O)(=O)N1CCC(c2nc3ccccc3[nH]2)CC1,0%,4%,-5%,20%,/,/,/,/
Oc1ccccc1C1Nc2cccc3cccc(c23)N1,-19%,-11%,-37%,-7%,-19%,-9.8%,9%,-1%
O=C(Nc1nc2nc(-c3ccccc3)cc(=O)n2[nH]1)c1ccc(Cl)cc1,15%,/,/,/,-3%,-1.2%,19%[46.1 µM],-1%[46.1 µM]
O=C(CNC(=O)c1ccccc1)NCc1ccc(Cl)cc1,-4%,1%,4%,-3%,/,/,19%[46.1 µM],7%[46.1 µM]
S=C(NCc1ccco1)NCc1ccco1,-7%,/,/,?,/,/,12%,8%
CCC(C)NC(=O)C1CCN(S(=O)(=O)N2CCOCC2)CC1 (stereo not drawn),-2%,6%,/,11%,/,/,8%,-2%
C/C(=N\O)c1ccc2c(c1)CC(C)O2 (stereo not drawn),22%,0%,0%,3%,/,/,-5%[46.1 µM],25%[46.1 µM]
COc1ccccc1-c1ccc(SCc2ccc(F)cc2)nn1,-17%,-2%,/,8%,/,/,31%[46.1 µM],?
CCCC1S/C(=N/N=C/c2ccc(C)cc2)N(Cc2ccc(OC)cc2)C1=O (stereo not drawn),-16%,2%,-4%,2%,-30%,1.5%,?,-17%
CC12C(=O)N(c3ccc(OC(=O)c4ccco4)cc3)C(=O)C1C1c3ccccc3C2c2ccccc21 (stereo not drawn),?,-10%,3%,5%,?,-2.8%,16%,?
Cc1cc2c(cc1S(=O)(=O)NCC(C)c1ccccc1)n(C)c(=O)c(=O)n2C (stereo not drawn),-9%,0%,0%,3%,/,/,/,/
Cc1cccc(-c2noc(CNC(=O)COc3ccccc3C)n2)c1,-11%,-8%,-46%,5%,/,/,21%[46.1 µM],0%[46.1 µM]
COc1ccc(S(=O)(=O)N2CCOCC2)cc1NC(=O)Cn1nnc2ccccc2c1=O,13%,-2%,/,7%,/,/,-8%,3%[46.1 µM]
CCOc1ccccc1NC(=O)Cn1c(=O)n(Cc2ccccc2)c(=O)c2cccnc21,13%,/,/,/,-8%,2.4%,/,14%[46.1 µM]
CS(=O)(=O)c1ccc(C(=O)OCc2nnc(-c3ccc(Cl)cc3)o2)cc1[N+](=O)[O-],?,-1%,-8%,-4%,/,/,?,?
Cc1ccc2c(c1)c(=O)c(C(=O)c1ccccc1)cn2Cc1ccccc1F,-27%,/,/,/,-6%,1.3%,-8%[46.1 µM],14%[46.1 µM]
O=C(CSc1nnc2ccccn12)NC(=O)NC1CCCC1,/,3%,5%,-2%,-6%,2.6%,4%,15%
COc1ccccc1CNC(=O)c1cc(-c2ccccc2)n[nH]1,7%,/,/,/,5%,-3.3%,0%[46.1 µM],/
CCn1cc(C(=O)NC2CCCCCC2)c2cc(OC)c(OC)cc2c1=O,-10%,6%,-12%,18%,?,2.8%,0%,-2%
CSc1nsc(SCC(=O)Nc2ccc(C(=O)O)cc2)n1,7%,2%,1%,-3%,/,/,-11%[46.1 µM],13%[46.1 µM]
Cc1ccc2oc(=O)c(-c3ccc(O)cc3)c(C)c2c1,39%[activator],5%,/,-2%,/,/,19%,21%
O=C(NCCCN1CCCC1=O)c1ccc(Cl)c(Cl)c1,3%,1%,/,-12%,/,/,4%,15%[46.1 µM]
Cc1cc(OCC(=O)N(Cc2ccc(N(C)C)cc2)CC2CCCO2)ccc1Cl (stereo not drawn),-13%,/,/,/,25%,-3.2%,?,5%[46.1 µM]
COc1ccc2c(Cl)c(C(=O)N/N=C/c3ccncc3)sc2c1,53%[activator],1%,10%,1%,/,/,-25%,-19%[46.1 µM]
CCOc1cc(C(Nc2cc(C)ccn2)c2ccc3cccnc3c2O)ccc1OC (stereo not drawn),-18%,/,/,/,0%,2.1%,5.6µM*,?
CCC(C)[C@H](NC(=O)N1CC(=O)Nc2ccccc21)C(=O)NC(C)CCc1ccccc1 (stereo partly drawn),3%,3%,17%,-2%,/,/,?,?
CC(=O)Nc1ccc(NC(=O)CN2CCN(c3cccc(C(F)(F)F)c3)CC2)cc1,0%,-7%,4%,-8%,6%,-2.6%,?,1%
COc1ccc(NC(=O)c2ccc3c(c2)OCO3)cc1,35%[activator],-9%,10%,-4%,/,/,/,/
CCOc1cc(/C=N/NC(=O)CSc2nncn2C)ccc1OCC(N)=O,-16%,2%,-3%,2%,/,/,-2%,2%
Cc1cc(-c2nnco2)c(C)n1-c1ccc(F)cc1,/,9%,-49%,13%,-3%,-1.2%,5%,0%
O=C(O)c1cccc(N2C(=O)Nc3ccccc3N2O)c1,-18%,18%,9%,13%,4%,-3.3%,?,17%
O=[N+]([O-])c1cccc(/C(=N/N=C/c2ccccc2Br)C23CN4CN(CN(C4)C2)C3)c1,-20%,8%,-3%,1%,11%,-3.2%,?,8%
CC(C)CNS(=O)(=O)c1cc(C(=O)N2CCOCC2)c(Cl)cc1Cl,63%[activator],5%,0%,27%,?,2.3%,10%,17%
CC(=O)Nc1ccc(NC(=O)CN2C(=O)COc3ccc(S(=O)(=O)N4CCCCC4)cc32)cc1,-3%,0%,1%,-6%,/,/,20%[46.1 µM],2%[46.1 µM]
Cc1nonc1OCCNc1ccc([N+](=O)[O-])c2cccnc12,-5%,-26%,-10%,-16%,-15%,-12%,8%,-2%
COc1ccc(CNC(=S)NC2CCCCC2)cc1,3%,1%,-21%,11%,/,/,13%[46.1 µM],16%[46.1 µM]
O=C(CCn1nc(-c2ccccc2)ccc1=O)N1CCN(c2ccccn2)CC1,-6%,0%,3%,-12%,-2%,0.6%,24%,-1%
NC(=O)c1cnn2c(-c3ccc(Cl)cc3Cl)ccnc12,-11%,7%,2%,11%,/,/,?,7%[46.1 µM]
